Screening results from PubChem BioAssay.
NPYLR7 ag: mosquito NPYLR7 agonism | HEK293T NPYLR7/Galpha15, GCaMP6s calcium fluorescence | AID 1259423 | activation, % at 10 µM | 270,000 compounds, 0.15% hits; in the data active = activation above about 40%;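 also: 0% = vehicle and 100% = reference agonist at the receptor; some compounds past the cut are filed as inactive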
NPYLR7 ag max-min: second read-out of NPYLR7 ag, no call of its own (marks repeat the call); activation, %; measured here: Max-Min RFU normalised activation; some inactives read as strong as hits;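 span of the calcium signal over five minutes; 0% = vehicle and 100% = native peptide agonist; compound fluorescence can raise it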
* = called active by the depositor; & = joins results of further samples.

SMILES	NPYLR7 ag	NPYLR7 ag max-min
O=C(NC1CCC1)c1nn(Cc2ccc(OCc3ccccc3)cc2)c2ccccc12	14	17
CCOC(=O)CC(SP(=S)(OC)OC)C(=O)OCC (stereo unspecified)	-6	16
C=CCNC(=O)N1CCOC(CN2CCCN(C(=O)COc3ccccc3)CC2)C1 (stereo unspecified)	6	2
COCCC1CN(Cc2c[nH]c3ccc(C)cc23)CCO1 (stereo unspecified)	2	2
CN(C)C(=NP(=S)(c1ccccc1)c1ccccc1)N(C)C	-1	39
O=c1c2c3c(sc2ncn1CCc1cnc[nH]1)CNCC3	-3	-4
c1cncc(C2CCCCN2)c1 (stereo unspecified)	-2	-9
O=C1CCC2(CC1)CN(Cc1ccncc1)CCc1ccccc12	17	13
O=C(Cc1cccs1)N1CCN(CC(OCc2c(F)cccc2F)c2ccc(Cl)cc2)CC1 (stereo unspecified)	-6	2
NCCc1cc(O)c(O)cc1O	-4	-13
O=C1NCCN2CCN(Cc3ccc4cc(Cl)ccc4n3)CC12 (stereo unspecified)	0	-2
CCOP(=S)(OCC)SCn1c(=O)oc2cc(Cl)ccc21	-12	-16
C#Cc1ccc(CN(C)C(C)Cc2cc(C)ccn2)cc1 (stereo unspecified)	21	10
Cc1nn(CC(C)C)c(C)c1CC(=O)Nc1ccc(C#N)c(Cl)c1	9	6
c1ccc(CN2CC3CCCC(C2)N3)cc1	-4	-2
ClCc1nc2ccccc2[nH]1	-4	-10
COc1ccc(CC(=O)N2CCN(CC(OCc3cccc(OC)c3)c3ccc(Cl)cc3)CC2)cc1 (stereo unspecified)	-4	9
CCN(CC)c1onc(-c2ccccc2)c1CN(CCN1CCOCC1)C(=O)Cc1ccccc1	14	13
Cc1ccccc1-c1ccc2n(c1=O)C[C@H]1C[C@@H]2CN(C(=O)CCC(=O)O)C1	-10	-13
NC(=S)N/N=C\c1coc2ccccc2c1=O	-7	-14
O=C(c1ccc(F)cc1)N1C[C@@H]2C[C@H](C1)c1ccc(-c3cncnc3)c(=O)n1C2	-13	-19
Cc1nc(-c2ccc(NC3CN4CCC3CC4)cc2)co1 (stereo unspecified)	8	8
C=CCOc1ccc(C=C2C(=O)N(C)C(=O)N(C)C2=O)cc1OCC	12	7
O=[N+]([O-])c1cc(S(=O)(=O)N2CCN(CCOC(c3ccccc3)c3cccc(C(F)(F)F)c3)CC2)ccc1Cl (stereo unspecified)	-3	5
Cc1cccc2c(CCNC(C)CN3CCOCC3)c[nH]c12 (stereo unspecified)	1	0
CCCCNCC(O)c1ccc(O)cc1 (stereo unspecified)	-12	-22
CNC(=O)Oc1c(Br)cc2sc(=O)oc2c1Br	5	1
Cn1cnc(CCN)c1	6	-46
O=[N+]([O-])NC1=NC(OCc2ccccc2)C(OCc2ccccc2)N1 (stereo unspecified)	-12	-16
C#CCN1C(=O)[C@]2(C)[C@H](c3ccccc31)[C@@H](C(=O)O)CN2C(=O)c1ccc2c(c1)OCO2	6	15
CC(Cc1cncs1)NC1CCN(c2cccc(NS(=O)(=O)c3ccc(F)cc3)c2)CC1 (stereo unspecified)	14	2
CCN1C(=O)C(=C2C=C(C)N(Cc3ccco3)C(C)=C2)C(=O)N(CC)C1=S	21	15
CN1C(=CC=C2C(=O)NC(=S)NC2=O)C(C)(C)c2ccccc21	35	53
c1ccc(-c2ncc(CN3CCC4(CCNCC4)C3)cn2)cc1	-3	-6
COCCn1cncc1CN1CCCC(C(=O)c2ccc(Cl)cc2)C1 (stereo unspecified)	-1	0
CC1CN=C(Nc2ccc(Cl)c(Cl)c2)S1 (stereo unspecified)	6	4
Cc1cc(C)c(NC(=O)c2cc3cccnc3n(Cc3ccccc3F)c2=O)c(C)c1	13	9
COCc1ccc(C(=O)N2C[C@@H](c3ccccc3)[C@@H]3[C@H]2C2CCN3CC2)o1	1	6
CS(=O)(=O)c1ccc(CN2CCN(CCOC(c3ccc(Cl)cc3)c3ccc(Cl)cc3)CC2)cc1	23	21
CC(C)c1ncc(C(=O)N2CCN3CCN(C)C(=O)C3C2)c(=O)[nH]1 (stereo unspecified)	0	1
COCc1nc(-c2cccc(CN3CCN(C(=O)COc4ccc(F)cc4)CC3)c2)no1	2	1
COc1ccc(OC)c(C2SCC(=O)N(CC(=O)O)c3c2c(-c2ccccc2)nn3C(C)(C)C)c1 (stereo unspecified)	-4	-12
Cc1ccc(-c2cn3c(CC(=O)N4CCN(Cc5ccccc5)CC4)csc3n2)cc1	1	-1
CO[C@H](C)C(O)(C(=O)OCC1=CCN2CC[C@H](O)[C@@H]12)C(C)C (stereo partly specified)	-4	-8
CCCNC(=O)CN1C(=O)CSC(c2cccc(F)c2)c2c(-c3ccccc3)nn(-c3ccccc3Cl)c21 (stereo unspecified)	-3	1
CCOC(=O)[C@@H]1CN2CCN(C(=O)Cc3cccc(OC)c3)C[C@@H]2[C@H]1c1ccccc1	1	0
COC(=O)Nc1cc(N=C(N)N[N+](=O)[O-])ccc1C	10	10
Cn1nc(C(=O)Nc2cnc3n2CCCC3)c2ccccc21	-7	-12
C[N+]1(C)C2CCC1CC(OC(=O)C(CO)c1ccccc1)C2 (stereo unspecified)	6&7	-8&-7
Cc1sc2nc(CCN)nc(N3C[C@H]4C[C@@H](C3)c3cccc(=O)n3C4)c2c1C	10	-5
O=C(c1cccc2cnccc12)N1CCC2(CC1)NCCNC2=O	8	4
CCc1nc(C)cc(NCCC23CCCN2CCC3)n1	17	13
CCC(=O)c1ccc(OCC(=O)N2CCCN3CCC[C@H]3C2)cc1	-12	-10
CN1CCC2(CC1)CN(C(=O)Cc1nnc(N)s1)CCCN2C	-3	-7
CCCc1nn(Cc2ccccc2)c(C)c1C(=O)O	11	17
COC1=Nc2ccccc2C2C(C(=O)C34CC5CC(CC(C5)C3)C4)C12C#N (stereo unspecified)	1	44
CCc1nnc(C(C)N2CCN(C(=O)COc3ccc(Cl)cc3)CC2)o1 (stereo unspecified)	19	18
CCOC(=O)[C@H]1CN(C(=O)NCc2ccccc2)[C@]2(C)C(=O)N(C)c3ccccc3[C@H]12	12	21
CCOc1ccc(C(=O)Nc2ccc3[nH]cc(CCN(C)C4CCCCC4)c3c2)cc1	22	17
CN(CC(=O)c1cccc(Br)c1)C1CCCCC1	-3	-4

The listing continues.
SMILES	NPYLR7 ag	NPYLR7 ag max-min
CC(=O)OC1(c2ccccc2)CC(C)CN(C(C)(C)C)C1 (stereo unspecified)	-6	-11
CNc1nc(-c2cccc3c2CCNC3)nc2c1CCC2	2	-2
N[C@@H](CCl)C(=O)O	3	-9
O=C(NC1CC1)c1ccnc(N2CCC3(CC2)NCCNC3=O)c1	12	-2
COC(=O)/C(C)=C\CC12OC(C)(C)C3CC(C=C4C(=O)c5c(OC)c6c(c(CC=C(C)C)c5OC431)OC(C)(CCC=C(C)C)C=C6)C2=O (stereo unspecified)	-3	-8
CSc1cccc(CNC(=O)c2cn(C3CCCCC3)nn2)c1	2	-1
CC(C)=CCCC1(C)C=Cc2c(O)c3c(c(CC=C(C)C)c2O1)OC12C(=CC4CC1C(C)(C)OC2(C/C=C(/C)C(=O)O)C4=O)C3=O (stereo unspecified)	6	-6
O=P(C=C(Cl)c1ccccc1)(C=C(Cl)c1ccccc1)Nc1ccccc1F	1	2
CC(=O)O[C@@H]1C[C@@]2(C)C(c3ccoc3)C[C@H]3O[C@]32[C@]2(C)C(=O)C(O)=C3C(C)(C)C(=O)C=C[C@]3(C)C12 (stereo partly specified)	4	2
CN(C(=O)Cc1ccc(Cl)c(Cl)c1)[C@H](CN1CCCC1)c1ccccc1	-12	-19
CCN1CCN(C(=O)Cc2ccc(NC(=O)c3cncc(Br)c3)cc2)CC1	5	3
COP(=S)(C1=C(N2CCOCC2)C(=Cc2ccccc2)CCC1)c1ccccc1 (stereo unspecified)	0	-2
Cc1cccnc1NC(=O)c1cccn(Cc2cccc(Cl)c2)c1=O	15	8
CC(C(=O)N1CCOCC1)N1CC=C(c2c[nH]c3ccccc23)CC1 (stereo unspecified)	5	4
Cc1nc(C(C)C)ncc1C(=O)N1CCC2(CC1)NCCNC2=O	-17	-16
C=CCN1CC[C@]23CCCCC2[C@H]1Cc1ccc(O)cc13 (stereo partly specified)	2	-14
CNC(C)Cc1c2c(cc3c1CCC3)CCC2 (stereo unspecified)	1	0
O=[N+]([O-])c1cc(S(=O)(=O)N2CCN(CCOC(c3ccccc3)c3ccc(F)c(F)c3)CC2)ccc1Cl (stereo unspecified)	22	28
COCCN1CCCC2(CCN(C(=O)Cc3cccnc3)C2)C1 (stereo unspecified)	13	7
COc1ccc2c(c1O)-c1c(OC)c(OC)cc3c1[C@H](C2)N(C)CC3	-3	-5
C=CCSCC(=O)N1CCN2CCNC(=O)C2C1 (stereo unspecified)	3	2
COc1ccc2c(c1)c(C(=O)N1CCN(C(=O)C3CCCO3)CC1)nn2Cc1ccc(OCc2ccccc2)cc1 (stereo unspecified)	8	8
Cc1ccc(CN2CCC(C#N)(c3ccccc3)CC2)c2ccccc12	-4	-10
COc1ccc2c(c1OC)C(=O)O[C@H]2[C@@H]1c2cc3c(cc2CCN1C)OCO3	0	-23
CC(=O)c1ccc(NC(=O)c2cccn(Cc3c(F)cccc3Cl)c2=O)cc1	14	5
Cc1ccc2[nH]cc(CN3CC[C@@]4(O)CCCC[C@H]4C3)c2c1	12	9
O=P(Nc1ccc(F)cc1)(OCC(F)(F)F)OCC(F)(F)F	26	34
c1cc2c(s1)C1CCCCC1OC21CN2CCC1CC2 (stereo unspecified)	-6	-12
CCCC12CNCC(C)(CNC1)C2=O	-1	6
C=CCN1C(=O)C2(c3ccccc31)c1c(cc(C)n(C)c1=O)OC(=N)C2C(=O)OCC (stereo unspecified)	0	-6
O=c1c(-c2cccnc2)ccc2n1C[C@H]1C[C@@H]2CN(Cc2cccs2)C1	-9	-18
CN(C)CCc1ccc(O)cc1	0	-1
COCCC(=O)N1C[C@@H]2C[C@H](C1)c1ccc(NC(=O)CN(C)C)c(=O)n1C2	-6	-16
COc1ncc(-c2nccn2CCc2cnc[nH]2)cn1	2	-4
CN1CC2([N+](=O)[O-])C=CC(=O)C([N+](=O)[O-])(C1)C2 (stereo unspecified)	1	1
Cc1c(NP(=S)(C(C)(C)C)C(C)(C)C)c(=O)n(-c2ccccc2)n1C	3	0

The last two compounds of the part before lead into the next.
SMILES	NPYLR7 ag	NPYLR7 ag max-min
CN1CC2([N+](=O)[O-])C=CC(=O)C([N+](=O)[O-])(C1)C2 (stereo unspecified)	1	1
Cc1c(NP(=S)(C(C)(C)C)C(C)(C)C)c(=O)n(-c2ccccc2)n1C	3	0
CC(N)Cc1ccccc1S(=O)c1ccccc1 (stereo unspecified)	4	1
COCC(C)NC(=O)c1nn(Cc2ccc(C(=O)N(C)Cc3ccccc3)cc2)c2ccccc12 (stereo unspecified)	15	17
CC(Cc1ccc(O)cc1)N(C)CC(=O)Nc1ccccc1Cl (stereo unspecified)	2	2
CN1CCN2CCN(C(=O)Cc3ccc(O)cc3)CC2C1=O (stereo unspecified)	7	4
OC(c1ccccc1)(c1ccccc1)C1CCCN1 (stereo unspecified)	1	1
CCOC(=O)C1C(=N)OC(C)=C(C(=O)OC)C12C(=O)Nc1ccccc12 (stereo unspecified)	5	5
O=C1NC(=O)C(=Cc2ccc(O)cc2)C(=O)N1	-3	-8
Cc1oc(-c2ccc(F)cc2)nc1CN1C[C@@H]2C[C@@H](C1)c1cccc(=O)n1C2	2	-1
CCOCCOCc1cccc(NC(=O)N2CCC3(CC2)OCCO3)c1	-12	-13
COc1ccc(C2=CCN(C(C)c3c(F)cccc3F)CC2)cc1 (stereo unspecified)	-1	-3
Cc1cccc(-n2nc(-c3ccccc3)c3c2N(CC(=O)N2CCCC2)C(=O)CSC3c2ccccc2Cl)c1C (stereo unspecified)	25	16
Cc1cccc(-n2nc(C(C)(C)C)c3c2N(CC(=O)N2CCCC2)C(=O)CSC3c2cccc(Cl)c2)c1C (stereo unspecified)	9	3
c1ccc2c(c1)CCCC2C1CCCN1 (stereo unspecified)	13	8

Molecules listed so far that contain fluorine (13):
SMILES	NPYLR7 ag	NPYLR7 ag max-min
O=C(Cc1cccs1)N1CCN(CC(OCc2c(F)cccc2F)c2ccc(Cl)cc2)CC1 (stereo unspecified)	-6	2
O=C(c1ccc(F)cc1)N1C[C@@H]2C[C@H](C1)c1ccc(-c3cncnc3)c(=O)n1C2	-13	-19
O=[N+]([O-])c1cc(S(=O)(=O)N2CCN(CCOC(c3ccccc3)c3cccc(C(F)(F)F)c3)CC2)ccc1Cl (stereo unspecified)	-3	5
CC(Cc1cncs1)NC1CCN(c2cccc(NS(=O)(=O)c3ccc(F)cc3)c2)CC1 (stereo unspecified)	14	2
Cc1cc(C)c(NC(=O)c2cc3cccnc3n(Cc3ccccc3F)c2=O)c(C)c1	13	9
COCc1nc(-c2cccc(CN3CCN(C(=O)COc4ccc(F)cc4)CC3)c2)no1	2	1
CCCNC(=O)CN1C(=O)CSC(c2cccc(F)c2)c2c(-c3ccccc3)nn(-c3ccccc3Cl)c21 (stereo unspecified)	-3	1
O=P(C=C(Cl)c1ccccc1)(C=C(Cl)c1ccccc1)Nc1ccccc1F	1	2
O=[N+]([O-])c1cc(S(=O)(=O)N2CCN(CCOC(c3ccccc3)c3ccc(F)c(F)c3)CC2)ccc1Cl (stereo unspecified)	22	28
CC(=O)c1ccc(NC(=O)c2cccn(Cc3c(F)cccc3Cl)c2=O)cc1	14	5
O=P(Nc1ccc(F)cc1)(OCC(F)(F)F)OCC(F)(F)F	26	34
Cc1oc(-c2ccc(F)cc2)nc1CN1C[C@@H]2C[C@@H](C1)c1cccc(=O)n1C2	2	-1
COc1ccc(C2=CCN(C(C)c3c(F)cccc3F)CC2)cc1 (stereo unspecified)	-1	-3

Only part of the results is shown. The share of hits here may be higher or lower than overall.
